TRPML1 agonist: activates the human TRPML1 channel; hit rate 0.12% among 410,000; TRPML1-expressing cells, Ca2+ dye fluorescence, FDSS; host cell line not named in the record; reference of the full effect not given here; activation, % (test concentration not listed); in the data active = activation above about 50%; inconclusive = about 30% to 50%; inactive = below about 30%; note: 0% is about no effect; the text of the record puts the active cut at 80%
Target sequence (Q9GZU1 whole entry, looked up): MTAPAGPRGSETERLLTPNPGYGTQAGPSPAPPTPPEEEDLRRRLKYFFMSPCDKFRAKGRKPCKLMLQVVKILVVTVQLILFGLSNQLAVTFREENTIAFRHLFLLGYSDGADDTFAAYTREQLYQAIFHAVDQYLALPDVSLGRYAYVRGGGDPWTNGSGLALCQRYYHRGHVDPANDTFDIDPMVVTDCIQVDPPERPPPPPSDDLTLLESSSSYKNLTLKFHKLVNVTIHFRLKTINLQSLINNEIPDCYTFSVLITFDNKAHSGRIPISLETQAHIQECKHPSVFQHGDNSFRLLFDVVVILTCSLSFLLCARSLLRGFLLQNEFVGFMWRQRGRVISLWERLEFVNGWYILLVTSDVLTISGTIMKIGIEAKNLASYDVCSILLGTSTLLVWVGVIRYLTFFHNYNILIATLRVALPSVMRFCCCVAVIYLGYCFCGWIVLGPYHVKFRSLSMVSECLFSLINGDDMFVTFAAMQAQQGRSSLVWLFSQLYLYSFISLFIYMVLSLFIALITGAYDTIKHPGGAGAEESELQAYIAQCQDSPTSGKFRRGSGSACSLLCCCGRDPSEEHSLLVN
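Kinetic FDSS Ca2+ read in Tet-induced TRPML1-DL cells (ABD Ca8 dye plus quencher, 45-90 min RT loading): baseline, then compound, then 110 s agonist window; EC80 agonist 54-4 at 4uM final added afterwards for a 110 s antagonist window.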
TRPML1 inh: human mucolipin-1 channel inhibition. AID 624415. hit rate 0.02% among 390,000. activity change, negative = inhibition, % (no concentration beside the values). TRPML1-inducible cells, Ca2+ dye fluorescence, FDSS; hits give low values; inhibition of EC80 agonist-evoked calcium signal; in the data active means activity change below about -50%; inconclusive means about -30% to -50%; inactive means above about -30%;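 note: stimulus is agonist 54-4 at its EC80 concentration; % is set by controls: 0 for no effect and ±100 for the full control effect; compound concentration not given in the record; the text of the record puts the active cut at -80%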
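TRPML1-DL cells, Tet-induced overnight (~16 h, 37 °C) at 1,500 cells/well, were loaded with Ca8 no-wash dye plus quencher for 45-90 min at room temperature. Compounds were pinned during FDSS kinetic reading; agonist 54-4 at EC80 (4 uM final) then added.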
Starred values were filed as active, the others as inactive; ? = inconclusive.

SMILES	TRPML1 agonist	TRPML1 inh
Cc1ccc(-c2nc(CS(=O)CC(=O)N3CCN(c4cccc(Cl)c4)CC3)c(C)o2)cc1 (stereo not given)	3.7	13
Cc1ccccc1OCc1ccc(-c2nc(C#N)c(N3CCN(c4cccc(Cl)c4)CC3)o2)o1	0.8	-10
COc1ccc(CNC(=O)c2cc(-c3ccc(Br)s3)nc3ccccc23)cc1	-0.7	16
CC(=O)Nc1ccc(NS(=O)(=O)c2cc3c4c(c2)CC(=O)N4CCC3)cc1	-0.6	25
CCC(=O)N1c2ccccc2CC1C(=O)N1CCN(c2ccccc2)CC1 (stereo not given)	0.1	-20
Cc1nnc(N2C(=O)c3oc4ccccc4c(=O)c3C2c2ccc(Cl)cc2)s1 (stereo not given)	-0.5	5
CC(C)(C)n1ncc2c(=O)n(Cc3ccccc3CS(=O)(=O)c3ccccc3)cnc21	1.4	-7
CCc1ccccc1NC(=O)CCCSc1nc(-c2ccco2)cc(C(F)(F)F)n1	-0.4	19
COc1ccc(CNC(=O)c2cc(C)nc3c2c(C)nn3-c2cccc(Cl)c2C)cc1	1.6	36
O=C(COc1ccccc1)NCc1ccc2c(c1)CCN2C(=O)c1ccc(F)cc1	2.0	26
Cc1c(C(=O)NCc2cccc(Cl)c2)sc2nc3n(c(=O)c12)CCC3	1.6	-5
CCOc1ccc(-c2nc3c(C#N)c[nH]n3c2NC2CCCCC2)cc1	2.2	44
COc1ccccc1CNC(=O)C1CCN(C2=NS(=O)(=O)C(c3ccc(C)c(C)c3)=C2C)CC1	0.3	14
COc1cc(NC(=O)CSc2nc3ccccc3nc2Cc2ccc(Cl)cc2)cc(OC)c1	0.7	-5
Cc1ccc(Cl)cc1NC(=O)CSC1=Nc2ccccc2C2=NC(Cc3ccccc3)C(=O)N12 (stereo not given)	0.5	-9
Cc1ccc(NC(=O)c2sc3ncn(Cc4cccc(F)c4)c(=O)c3c2C)c(Br)c1	0.9	10

Taken from the listing, two compounds:
SMILES	TRPML1 agonist	TRPML1 inh
COc1ccc(CNC(=O)c2cc(C)nc3c2c(C)nn3-c2cccc(Cl)c2C)cc1	1.6	36
O=C(COc1ccccc1)NCc1ccc2c(c1)CCN2C(=O)c1ccc(F)cc1	2.0	26

Next section.
SMILES	TRPML1 agonist	TRPML1 inh
Cc1noc(/C=C/c2ccccc2F)c1S(=O)(=O)N1CCC(C(=O)N(C)Cc2ccco2)CC1	0.1	14
CCc1cccc(NC(=O)Cn2c(C(=O)OC)cc3sc(Cl)cc32)c1	-0.4	-6
Cc1ccc(/C=C/c2onc(C)c2S(=O)(=O)N2CCC(C(=O)NCc3ccc(OC(C)C)cc3)CC2)cc1	0.6	-3
Cc1cc(C)cc(NC(=O)c2cc(S(=O)(=O)N3CCOCC3)cn2C)c1	-0.1	29
Cc1ccc2oc(-c3cc(NC(=O)c4cccs4)cc(C)c3O)nc2c1	1.1	-5
COc1ccc(Cn2c(CCC(=O)Nc3cc(C)cc(C)c3)nc3cccnc32)cc1	3.5	6
COc1cc(C)ccc1OCCSc1nc2ccc(NC(=O)c3ccco3)cc2s1	0.7	9
Cc1cc(CN2CCN(c3cccc(C)c3C)CC2)cs1	1.0	2
CCN1C(=O)c2ccccc2S(=O)(=O)c2ccc(C(=O)NCc3ccccc3Cl)cc21	0.1	1
CCCCCCNC(=O)CCc1c(C)nc2nc(-c3cc(OC)cc(OC)c3)nn2c1C	-0.7	20
CCC(=O)Nc1ccc(S(=O)(=O)NCc2cccn2Cc2cccc(C)c2)cc1	1.3	-4
COc1ccc(C(=O)CSc2nc(C)cc(C)c2C(=O)Nc2ccccc2C)cc1	4.9	5
Cc1ccc(OC(=O)c2snnc2C)cc1C	0.5	-23
CNC(=O)C1(C(F)(F)F)CC(CCCO)CCCO1 (stereo not given)	0.4	0
Cc1ccc(C)c(NC(=O)C(CC(C)C)N2Cc3ccccc3C2=O)c1 (stereo not given)	-0.5	5
CCOC(=O)c1ccc(NC(=O)c2nn(C)c3c2COc2ccccc2-3)cc1	-0.7	-9

Single records (already shown). Order of screens: TRPML1 agonist | TRPML1 inh
Profile of CCOC(=O)c1ccc(NC(=O)c2nn(C)c3c2COc2ccccc2-3)cc1 = -0.7 | -9
Profile of CCN1C(=O)c2ccccc2S(=O)(=O)c2ccc(C(=O)NCc3ccccc3Cl)cc21 = 0.1 | 1

(continued)
SMILES	TRPML1 agonist	TRPML1 inh
CCOC(=O)c1cnc2c(C)cc(C)cc2c1NCCN1CCOCC1	-0.2	1
Cc1ccc(F)cc1S(=O)(=O)N1CCC(c2nc3ccccc3s2)CC1	2.2	28
COc1cccc(-n2c(=O)c3c(C)c(C)sc3n(CC(=O)NCc3ccc(C)cc3)c2=O)c1	3.6	-2
COc1ccc(NC(=O)COCc2cc(-c3ccco3)on2)cc1Cl	4.0	14
C=Cc1ccc(Cn2nc(-c3ccc(C)c(S(=O)(=O)N(CC)CC)c3)ccc2=O)cc1	2.3	43
COCCCNC(=O)CSc1nc2cc3c(cc2c(=O)n1CCCCCC(=O)NCc1ccc(OC)cc1)OCO3	2.9	6
COc1cccc(C2C=C(c3ccc(C)c(C)c3)Nc3nnnn32)c1OC (stereo not given)	0.5	-17
COc1ccc(-c2nc(SCC(=O)NCc3nc4ccccc4n3C)n3[nH]c(=O)cc3n2)cc1	-0.7	4
Cc1cccc(CC(=O)N2CC(=O)Nc3ccc(Br)cc3C2c2ccc(F)cc2)c1 (stereo not given)	1.0	28
COC(=O)COc1ccc(Oc2nc(NC(C)(C)C)nc(N3CCOCC3)n2)nn1	-0.2	10
CCOC(=O)c1ccc(NC(=O)C2=C(C)C(=O)OC23CCCCCC3)cc1	2.1	38
COc1ccc(C(=O)NCCn2cc(SCC(=O)Nc3ccc(F)cc3)c3ccccc32)cc1	3.8	-7
CCc1ccc2c(c1)c(=O)c(C(=O)c1ccccc1)cn2CC(=O)Nc1ccc(C)c(Cl)c1	0.3	-12
CCC1CCCCN1S(=O)(=O)c1cc2c(cc1C)NC(=O)CO2 (stereo not given)	-0.9	-9
Oc1c(C(c2ccc(Cl)cc2Cl)N2CCCC2)sc2nc(-c3ccco3)nn12 (stereo not given)	2.0	-13
CC(C)c1cnc2c(c1SCc1ccc([N+](=O)[O-])cc1)c(=O)n(C)c(=O)n2C	2.5	?

Sorted by value in TRPML1 inh (ascending): some entries from above.
smiles | TRPML1 inh
Oc1c(C(c2ccc(Cl)cc2Cl)N2CCCC2)sc2nc(-c3ccco3)nn12 (stereo not given) | -13
CCC1CCCCN1S(=O)(=O)c1cc2c(cc1C)NC(=O)CO2 (stereo not given) | -9
COc1ccc(C(=O)NCCn2cc(SCC(=O)Nc3ccc(F)cc3)c3ccccc32)cc1 | -7
COC(=O)COc1ccc(Oc2nc(NC(C)(C)C)nc(N3CCOCC3)n2)nn1 | 10
Cc1cccc(CC(=O)N2CC(=O)Nc3ccc(Br)cc3C2c2ccc(F)cc2)c1 (stereo not given) | 28
CCOC(=O)c1ccc(NC(=O)C2=C(C)C(=O)OC23CCCCCC3)cc1 | 38

The list continues:
Structure,TRPML1 agonist,TRPML1 inh
COCCCNc1nc2c(c(=O)n(Cc3ccccc3)c(=O)n2C)n1C,-1.3,22
CCC(=O)N1CCc2cc(S(=O)(=O)NC(C(=O)NCCc3ccc(OC)c(OC)c3)C(C)C)ccc21 (stereo not given),-0.2,2
CCOC(=O)c1cc(-c2ccc(OC)c(S(=O)(=O)Nc3ccc(OC)cc3OC)c2)on1,1.4,6
CCc1ccc(NC(=O)CC2C(=O)N(c3cccc(C)c3)C(=O)N2CCC(C)C)cc1 (stereo not given),2.0,-9
COc1ccccc1NC(=O)c1oc2ccccc2c1NC(=O)c1cccc(OC)c1OC,-0.2,6
Cc1nnc(NC(=O)CSCc2cc(=O)c3ccc(C)c(C)c3[nH]2)s1,4.5,-18
CCOc1ccc(-n2nc(CO)c(C(=O)NCc3cccnc3)n2)cc1,2.8,22
COc1ccccc1CNc1nc(-c2ccco2)nn1C(=O)c1ccccc1[N+](=O)[O-],0.0,-11
COc1ccccc1CN1CCC(CNC(=O)c2cnn(-c3ccc(C)c(C)c3)c2C2CCN(C(=O)OC(C)(C)C)CC2)CC1,0.7,11
O=C(CC1N=C2c3ccccc3N=C(SCc3cccc(Cl)c3)N2C1=O)NC1CCCCC1 (stereo not given),-0.2,71
O=C(Cn1ncn2cccc2c1=O)NCc1cccc(Br)c1,-0.6,-1
CC(C)c1ccc(N2C(=O)CSC23C(=O)N(Cc2ccccc2)c2ccccc23)cc1 (stereo not given),2.7,-20
Cc1cccc(Oc2nc3c(c(=O)n(C)c(=O)n3C)n2C)c1C,-0.6,1
O=C(COc1ccccc1[N+](=O)[O-])N(Cc1ccco1)c1ccccn1,-1.1,-21
Cc1ccc(-n2cnc3cc(C(=O)NC4CCCCCC4)ccc32)cc1Cl,2.4,62
O=C1CC(c2ccccc2)Cc2[nH]c(=O)c(C(=O)Nc3ccc(F)cc3)cc21 (stereo not given),0.5,-16
Cc1ccc(Sc2c(C)nn(C(=O)COc3ccccc3Br)c2C)cc1,1.0,-12
CSc1ccc(CCNC(=O)CCn2c(=O)c3cccn3c3cccnc32)cc1,-0.8,17
Cc1cc(C)cc(NC(=O)Cn2nnc(-c3ccccc3F)n2)c1,0.7,-8
COC(=O)c1cc2oc(C)cc2n1CC(=O)Nc1ccc(C(C)C)cc1,-0.1,-2
Cc1cccc(NC(=O)C2CCCN(S(=O)(=O)c3ccc4c(c3)oc(=O)n4C)C2)c1C (stereo not given),-0.9,1
COCCCNC(=O)CCCN1C(=O)CCn2nc(-c3cn(C)c4ccccc34)cc21,1.7,4
CC(C)n1c(=N)c(C(=O)NCc2ccccc2)cc2c(=O)n3ccccc3nc21,-0.3,-3
COc1ccc(-c2c(C)nn3c(C(F)(F)F)cc(-c4ccc(C)cc4)nc23)cc1,0.1,-5
CCn1cc(S(=O)(=O)c2ccccc2)c(=O)c2cc(F)c(N3CCCC3)cc21,-0.2,15
CCN(CC)CCN(C(=O)c1ccc(C(=O)OC)cc1)c1nc2ccc(Cl)cc2s1,0.4,37
CCOC(=O)N1CCc2c(sc3c2c(=O)n(-c2ccc(Cl)cc2)c(=O)n3CC(=O)c2ccc(F)cc2)C1,2.4,5
Cc1cccc(NC(=O)C(=O)NCCc2csc(-c3ccc(F)cc3)n2)c1C,2.3,6
CCOC(=O)c1c(C)n(-c2ccccc2)c2ccc(OC(=O)c3cc(OC)cc(OC)c3)cc12,0.2,16
COc1ccc(-c2nn(C)c3sc(C(=O)N4CCN(c5cccc(Cl)c5)CC4)cc23)cc1OC,-1.0,26
COc1ccc(C(=O)Nc2ccc(NC(=O)c3cccs3)cc2)cc1OC,3.2,27
COc1ccc(-c2ccc(C3C4C=CCC(C)C4C(=O)N3Cc3ccccc3)c(F)c2)cc1 (stereo not given),1.5,75
COc1cccc(-c2nnc(SCC(=O)NC3CCCCC3)o2)c1,0.0,-9
CCCCNc1nc2c(c(=O)n(Cc3ccc(Cl)c(Cl)c3)c(=O)n2C)n1C,-1.1,31
COc1ccc(CC(=O)NCc2ccc3c(c2)CCN3C(=O)c2ccc(C)cc2)cc1OC,1.8,-11
CN(C)c1ncc(C(=O)NCc2ccccc2Cl)cn1,1.4,-9
Cc1cc(C)c(S(=O)(=O)NCC(c2ccc(N(C)C)cc2)N2CCc3ccccc32)c(C)c1 (stereo not given),-0.4,-2
O=C(Nc1cccc(C(=O)OCc2cc(=O)n3ccsc3n2)c1)c1ccc(F)cc1,-0.8,-6
COc1ccc(OC)c(-c2noc(N3CCN(c4cc(C)ccc4C)CC3)n2)c1,1.4,23
CCOc1ccc(NS(=O)(=O)c2ccc(-c3cc(C)no3)s2)cc1,0.1,-5
Cc1cc(C)cc(-n2ccn(CC(=O)Nc3ccccc3F)c(=O)c2=O)c1,-0.7,-5
N#Cc1ccccc1NC(=O)C(=O)NCC(c1ccc2c(c1)OCO2)N1CCOCC1 (stereo not given),0.3,18
Cc1cc(C)c2c(=O)cc(C(=O)Nc3sc4c(c3C#N)CCCC4)oc2c1,1.8,-21
COc1cccc(-n2c(SCC(=O)N3CCCc4ccccc43)nc3c([nH]c4ccccc43)c2=O)c1,1.8,44
CCOC(=O)c1cc(-c2ccccc2)n(CCC(=O)Nc2ccccc2CC)c1C,1.7,-6
O=C(Nc1nc2n(n1)C(c1ccccc1)C=C(c1ccccc1)N2)c1ccc(Cl)c([N+](=O)[O-])c1 (stereo not given),-0.5,-6
Cc1ccc2cccc(NC(=O)c3ccc(OC(C)C)cc3)c2n1,4.0,72
CCCCc1ccc(NC(=O)c2ccc3c(c2)CCN3S(=O)(=O)c2ccccc2)cc1,0.5,13
COc1ccc(CNC(=O)CN2C(=O)COc3ccc(S(=O)(=O)Nc4ccccc4)cc32)cc1,-0.2,-13
COc1ccc(OC)c(NC(=O)c2cc3cc4ccc(C)cc4nc3s2)c1,-0.9,17
CCc1ccc(NC(=O)c2oc3c(c2C)-c2[nH]ncc2CC3)cc1,2.3,-3
COc1ccc(NC(=O)Nc2sc3nc4n(c(=O)c3c2C)CCC(C)CC4)cc1OC (stereo not given),-1.0,-6
COCCNC(=O)c1ccc2c(=O)n(CCOC)c(SCC(=O)c3c[nH]c4ccccc34)nc2c1,1.4,10

Compound activity from PubChem.

The list is partial (hit frequency here may not be typical).
